Sa growth 42C = inhibitors of Staphylococcus aureus growth at 42 °C; S. aureus RN4220 growth, OD600, 20 h; stronger effect = lower value; relative growth, % (test concentration not listed); actives 0.53% (n = 170,000);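 active = growth at 42 °C up to 50% and 20 or more points under that at 30 °C, or under 10% at both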;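 also: 300 nL library stock went into each well; scaled to the means of positive and negative controls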
HCMV NEC inh = disrupts HCMV UL50-UL53 complex binding; HTRF UL50-UL53 interaction, normalized percent inhibition; inhibition, % (concentration not given with the values); AID 1918969; actives 0.15% (n = 190,000);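 active = both replicates at 50% or more, plus weaker picks with an unusually low signal ratio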;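 also: stock transfer was 100 nL into about 20 µL; 0% = negative control wells and 100% = wells with untagged competitor protein; inactives centre near -12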
GIV-Gai inh = blocks GIV peptide binding to rat Galpha-i3. P08753. Galpha-i3/FITC-GIV peptide fluorescence polarization, 90 min; stronger effect = lower value; scaled: aluminum fluoride 0%, vehicle 100%. percent of control (FP), % (no concentration beside the values). actives 0.42% (n = 210,000);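 active = replicate mean at 85% of control or lower, very high polarization wells dropped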;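 also: wells of about 15 µL received 100 nL stock; the first replicate is given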
Target sequence (P08753 whole entry, looked up): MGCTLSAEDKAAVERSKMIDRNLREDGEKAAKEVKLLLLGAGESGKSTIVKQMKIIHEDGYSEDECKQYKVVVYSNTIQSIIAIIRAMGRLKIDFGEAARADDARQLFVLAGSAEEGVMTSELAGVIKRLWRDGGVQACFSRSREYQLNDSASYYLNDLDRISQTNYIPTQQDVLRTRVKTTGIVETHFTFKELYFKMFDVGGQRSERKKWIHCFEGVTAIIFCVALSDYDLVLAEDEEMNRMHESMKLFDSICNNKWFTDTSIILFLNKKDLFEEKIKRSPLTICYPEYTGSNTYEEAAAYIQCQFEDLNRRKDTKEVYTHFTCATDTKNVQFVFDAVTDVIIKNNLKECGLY
Sa growth 42C second temp = also measured in Sa growth 42C; calls as there; relative growth, %; measured here: growth at 30 °C;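 optical density after 20 h as mean of two plates; 100% = untreated growth and lower means inhibition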
The depositor's hits bear a star; x = no result given; & = joins results of further samples.

SMILES	Sa growth 42C	Sa growth 42C second temp	HCMV NEC inh	GIV-Gai inh
COc1ccc(S(=O)(=O)NCc2cccn2Cc2cccc(C)c2)cc1	110	89	x	101
Cc1ccc(NC(=O)Nc2cc3c(cc2N2CCCCC2)n(C)c(=O)n3C)cc1Cl	99	100	18	107
O=c1ncc(F)c[nH]1	87	82	-70	x
COc1ccc(/C=C/C(=O)N2CCN(C(c3ccccc3)c3ccccc3)CC2)cc1OC	104	90	-35	x
c1cc(-c2ccsc2)[nH]n1	92	92	-1	99
CCn1c(=NC(=O)c2ccc(S(=O)(=O)N(C)C)cc2)sc2ccccc21	92	93	x	104
COc1ccc(OC)c(NC(=O)CCNS(=O)(=O)c2cccc3nonc23)c1	x	x	-63	108
COC(=O)c1nc2ccccc2nc1NCc1ccco1	x	x	-56	123
CC(C)NC(=O)CCc1nc(-c2nn(-c3ccccc3)c(=O)n(C)c2=O)no1	x	x	-43	108
CCOC(=O)c1csc(-c2sc(SC)c3c2CCCC3=O)n1	90	73	-6	99

One compound at a time, from the list above. Screens in order: Sa growth 42C	Sa growth 42C second temp	HCMV NEC inh	GIV-Gai inh
Listed for `CCn1c(=NC(=O)c2ccc(S(=O)(=O)N(C)C)cc2)sc2ccccc21` : 92	93	x	104
Listed for `COc1ccc(OC)c(NC(=O)CCNS(=O)(=O)c2cccc3nonc23)c1` : x	x	-63	108

Continuation:
SMILES	Sa growth 42C	Sa growth 42C second temp	HCMV NEC inh	GIV-Gai inh
CC1CC(=O)N(c2ccccc2)N1 (stereo not given)	110	76	12	101
O=c1c2cccnc2n(Cc2ccccc2F)c(=O)n1Cc1ccc(F)cc1	105	84	-12	104
CCOc1cccc(Nc2nn(-c3ccc(OC(F)(F)F)cc3)nc2C(C)=O)c1	114	92	-18	97
CN(C)c1ccc(CNc2ccccn2)cc1	94	89	-18	105
Cc1nn(-c2ccccc2)c(C)c1COC(=O)c1ccc(S(=O)(=O)N(C)C)cc1	107	79	-28	x
Clc1nncc2ccccc12	80	86	-7	x
O=C(NCc1ccccc1)C1CCC(Cn2c(=S)[nH]c3ccccc3c2=O)CC1 (stereo not given)	107	93	x	104
C=CCN(CC=C)S(=O)(=O)c1ccc(C(=O)N2CC(C)CC(C)C2)cc1 (stereo not given)	106	95	-7	100
Cc1ccccc1OCCn1cnc2c(N)ncnc21	92	85	-33	97
O=S(=O)(c1ccccc1F)N1CCC2(CC1)Nc1cc(F)ccc1-n1cccc12	x	x	-25	106

Ordered by molar mass (descending): three of the compounds above
SMILES	Sa growth 42C	Sa growth 42C second temp	HCMV NEC inh	GIV-Gai inh
CC(C)NC(=O)CCc1nc(-c2nn(-c3ccccc3)c(=O)n(C)c2=O)no1	x	x	-43	108
COc1ccc(S(=O)(=O)NCc2cccn2Cc2cccc(C)c2)cc1	110	89	x	101
O=c1ncc(F)c[nH]1	87	82	-70	x

(further entries)
SMILES	Sa growth 42C	Sa growth 42C second temp	HCMV NEC inh	GIV-Gai inh
Cc1ccccc1-c1noc(-c2nnn(-c3ccc(Br)cc3)c2C)n1	x	x	-26	103
CC(=O)N1CCc2c(sc3c2c(=O)n(-c2ccccc2Cl)c(=O)n3C)C1	109	87	x	101
Clc1cc2c(c3ncccc13)OCN(CCc1ccccc1)C2	95	1	-49	x
COc1ccc2c(Cl)c(C(=O)N3CCN(CCN4C(=O)c5cccc6cccc(c56)C4=O)CC3)sc2c1	x	x	-16	108
COc1ccc(CCC(O)C2(O)CCCCC2)cc1 (stereo not given)	91	105	6	x
O=C(Nc1c(C(=O)N2CCOCC2)cnn1-c1ccccc1)c1ccccc1F	110	91	-10	99
COc1ccc(-c2nc(SCC(=O)NC3CCCC3)c(-c3ccc(C)cc3)[nH]2)cc1OC	90	67	-7	99
COc1c(NC(C)=O)oc2ccccc12	94	91	-19	100
Cc1cc(C)cc(Nc2cc(C(C)C)nc3nc(-c4cccnc4)nn23)c1	x	x	10	102
CCN(CC)S(=O)(=O)c1ccc(C(=O)Nc2nc3c(Cl)cc(Cl)cc3s2)cc1	102	77	x	105
O=S(=O)(c1ccccc1)N1CCN(c2nnnn2-c2ccccc2)CC1	69	86	-17	x
CC(C)(C)N(Cc1ccccc1)C(=O)COc1ccccc1	117	101	-2	106
COc1ccccc1/C=C/C1=NC(=C\c2ccc3c(c2)OCO3)/C(=O)O1	111	79	x	137
COc1ccccc1C(=O)ON1C(=O)c2ccccc2C1=O	80	97	-22	93
CCOc1ccccc1NC(=O)c1cc2cc(C)ccc2n1C	109	91	-14	101
CC(C)NC(=O)Cn1c(SCC(=O)N2CCc3ccccc32)nc2ccccc21	100	79	-4	102
CCOC(=O)CSc1nnc(Cc2ccc(OCC)cc2)n1C	79	111	-7	101
N/C(=N/c1nc2ccccc2o1)NC(=O)Nc1ccc(Cl)c(Cl)c1	104	76	x	102
COc1ccc(C2Nc3ccccc3C(=O)N2c2ccc(Cl)cc2)cc1CN1CCOCC1 (stereo not given)	x	x	-18	108
Cc1ccc(S(=O)(=O)N2CCCC(c3nc(-c4ccccc4C)no3)C2)cc1 (stereo not given)	x	x	-30	102
O=c1cc2[nH][nH]c(=S)n2c(=O)[nH]1	109	64	4	98
CCSc1nnc2c(n1)OC(c1cccs1)Nc1ccccc1-2 (stereo not given)	x	x	-25	101
O=C(O)CCN(Cc1ccccc1)S(=O)(=O)c1cccc(C(F)(F)F)c1	138	84	-4	x
Cc1cc(NC(=O)OCC(F)(F)F)no1	98	94	6	x
CC1(C)CC(=NO)CC(C)(C)[NH+]1[O-] (stereo not given)	84	77	-23	103
CCOC(=O)c1cn(C)c(=O)c2ccccc12	99	86	x	99
CC1=CC2=NC(=O)/C(=C\c3ccco3)C(=N)N2O1	84	92	x	105
Cc1ccc(C)c(Cc2c(C)nc3c(C(=O)NC4CC4)cnn3c2C)c1	100	73	x	111
CCCc1oc2cc(OCC(=O)OC)c(CC)cc2c(=O)c1-c1ccc2c(c1)OCCCO2	x	x	2	101
CCc1ccc(-c2ccc(C#N)cc2)nc1	96	73	-4	x
CCOC(=O)c1sc(NC(=O)CC)c(C(=O)OCC)c1C	101	90	-12	x
Cc1ccc(C2CCN(C(=O)Nc3ccc(C)c(C)c3)C2)cc1 (stereo not given)	115	90	x	100
Cc1ccc(/C=C2\SC(=O)N(CCN3CN(CCO)c4nc5ccccc5n4C3)C2=O)cc1	76	87	-46	x
Cc1cccc(-c2nnc(CSc3nnc(C4CC4)n3-c3ccccc3)o2)c1	104	87	-22	x
CSc1nc2ccc3nc(NC(=O)c4ccccc4Cl)sc3c2s1	107	90	x	103
O=C1c2ccccc2S(=O)(=O)N1CC(O)CN1c2ccccc2Sc2ccccc21 (stereo not given)	107	94	7&-8	103&101
CCOc1ccc(/C=N/n2c(C)nc3ccccc3c2=O)cc1	108	89	x	96
CC1=CC(OC(=O)Nc2ccc(Cl)cc2)CC(C)(C)C1 (stereo not given)	86	79	-2	x
O=C(Nc1ccccc1)N1CCC(N2CCN(Cc3ccccc3)C2=O)CC1	x	x	18	96
CCCCN1C(=O)c2ccc(C(=O)OC3CCCCC3=O)cc2C1=O (stereo not given)	109	90	-78	x
C=CCn1c(NCc2ccccc2O)nc2ccccc21	90	81	-2	98
COc1ccc(CNC(=O)c2cc3c(=O)n(C)c4ccccc4c3n2C)c(OC)c1	106	75	-17	102
CC(C)(C)C(=O)N1CC(=O)Nc2ccccc21	x	x	-17	96
O=C(NC(=S)Nn1cnnc1)c1ccc(Cl)c(S(=O)(=O)N2CCCCCC2)c1	103	89	-36	x
Cc1nn(C)cc1CNC(=O)CCC(=O)O	102	80	5	103
Cc1ccc(-n2nc3cc(C)c(NC(=O)COc4ccccc4)cc3n2)cc1	113	89	x	98
O=C(N/C(=C/c1ccc2c(c1)OCO2)C(=O)N1CCCC1=O)c1ccco1	91	88	-36	105
CN(C)CCN(C)C1CCc2ccccc2C1 (stereo not given)	89	99	-8	101
O=C(CSc1nnnn1C1CCCC1)NC1CCCc2ccccc21 (stereo not given)	80	91	-22	x
CCCc1cc(=O)n2[nH]c(NCc3c(F)cccc3Cl)nc2n1	116	87	-8	103

6 entries picked at random from the list so far:
SMILES	Sa growth 42C	Sa growth 42C second temp	HCMV NEC inh	GIV-Gai inh
Cc1nn(C)cc1CNC(=O)CCC(=O)O	102	80	5	103
O=C(N/C(=C/c1ccc2c(c1)OCO2)C(=O)N1CCCC1=O)c1ccco1	91	88	-36	105
Cc1cc(C)cc(Nc2cc(C(C)C)nc3nc(-c4cccnc4)nn23)c1	x	x	10	102
Cc1ccc(-n2nc3cc(C)c(NC(=O)COc4ccccc4)cc3n2)cc1	113	89	x	98
CCOc1cccc(Nc2nn(-c3ccc(OC(F)(F)F)cc3)nc2C(C)=O)c1	114	92	-18	97
O=C(NC(=S)Nn1cnnc1)c1ccc(Cl)c(S(=O)(=O)N2CCCCCC2)c1	103	89	-36	x

(list continues)
SMILES	Sa growth 42C	Sa growth 42C second temp	HCMV NEC inh	GIV-Gai inh
COc1ccc(NC(=O)Nc2cccc(C)n2)c(OC)c1	101	89	-3	103
CCOc1cc(CNCc2nnc3ccccn23)ccc1OCC(=O)N1CCCCC1	83	96	-11	x
CN(C)Cc1c(O)ccc2occ(C(=O)c3ccc(F)cc3)c12	106	78	-14	101
CCOC(=O)C1CCN(S(=O)(=O)c2ccc3c(c2)SCC(=O)N3)CC1	93	84	x	105
CC(C)CC(=O)NC(=S)N1CCCCCC1	109	95	-14	106
CCN(CC)C(=O)c1sc2c(c1C)c(=O)n(CCc1ccccc1)c(=O)n2Cc1ccc(C)cc1	109	85	x	103
N#Cc1c(=O)n(O)c2ccccc2[n+]1[O-]	125	51	-132	-33*
CS(=O)(=O)N1CCCN(c2ccc(=O)n(-c3ccccc3)n2)CC1	x	x	-46	100
Cc1ccccc1-n1nc(C)c(CC(=O)O)c1C	105	94	-4	99
COc1cc(/C=C(\C#N)c2nc3ccccc3[nH]2)ccc1OCc1ccccc1F	98	92	-48	113
COc1ccccc1Nc1cc(C(=O)NC2CCCC2)c2ccccc2n1	114	93	-11	103
CN(C)C(=O)C1CCN(S(=O)(=O)Cc2ccc(F)cc2)CC1	x	x	-32	102
COC(=O)c1ccccc1NC(=O)CC1Nc2ccccc2NC1=O (stereo not given)	84	77	-19	96
Cc1oc2c(Cl)c(Cl)c(O)c(CN(C)C)c2c1C(=O)c1ccc(Cl)cc1	100	110	-12	105
COC(=O)c1cc(=O)n(-c2ccccc2C(F)(F)F)[nH]1	89	72	-11	108
CCC1(C)NC(=O)N(/N=C/c2ccc(OCC(=O)N3CC(C)OC(C)C3)c(OC)c2)C1=O (stereo not given)	89	91	-28	x
CC(C)Cn1c(=N)c(C#N)cc2c(=O)n3ccccc3nc21	90	92	-22	103
Cc1ccc(N2CCN(C(=O)CC3=NS(=O)(=O)c4ccccc4N3)CC2)c(C)c1	x	x	2	101
COc1cc(Cl)ccc1S(=O)(=O)N1CCN(Cc2nc3cccnc3n2-c2ccc(C)cc2)CC1	x	x	-3	112
CCc1ccc(S(=O)(=O)c2cn(Cc3ccccc3)c3cc(N4CCCC4)c(F)cc3c2=O)cc1	92	98	x	103
COc1ccc(C(=O)CC2(O)C(=O)Nc3ccc(Br)cc32)c(OC)c1 (stereo not given)	x	x	3	113
COc1ccc(NC(=O)Nc2nnc(-c3ccncc3)s2)cc1	x	x	3	99
N#CC1=C(N)OC2=C(C(=O)CCC2)C1c1ccccc1C(F)(F)F (stereo not given)	96	88	-39	102
O=C(Cc1ccccc1Cl)Nc1ccccn1	108	101	-4	107
CCc1ccc(NS(=O)(=O)c2[nH]ncc2-c2ccc(Cl)cc2)cc1	x	x	-30	104
CC1(C)CC(NC(=O)c2ccc(C(=O)c3ccccc3)o2)CC(C)(C)N1	103	89	-62	x
CSC(=Nc1ccccc1F)Nc1ccccc1F	107	98	2	98
C1=C(c2cccc3ccccc23)N2CCN=C2S1	92	79	-51	104
CCCN(CCC)C(=O)c1cc2c(n(-c3ccc(Cl)c(Cl)c3)c1=O)CC(C)(C)CC2=O	120	84	x	102
S=c1sscc1-c1ccccc1	78	78	-70	x
COc1ccc(CC(=O)n2c(=O)oc3ccc(C)cc32)cc1	98	84	-3&-7	105&103
NC(=O)COC(=O)CSc1ccc(Cl)cc1	92	92	-7	x

In a second layout: 3 of the compounds above.
compound,Sa growth 42C,Sa growth 42C second temp,HCMV NEC inh,GIV-Gai inh
S=c1sscc1-c1ccccc1,78,78,-70,x
COc1ccc(CC(=O)n2c(=O)oc3ccc(C)cc32)cc1,98,84,-3&-7,105&103
NC(=O)COC(=O)CSc1ccc(Cl)cc1,92,92,-7,x
